Assay outcomes as filed in PubChem.
UUG fidelity = alters start codon recognition fidelity in yeast; S. cerevisiae UUG-firefly luciferase reporter, luminescence/redox ratio; activity score, % at 18.7 µM; hit rate 0.13% among 350,000; AID 602363;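 active = replicate mean at a twofold rise or more, about +100% in these data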;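 note: firefly luciferase made from a UUG start codon reports start codon fidelity; reporter light over untreated wells divided by growth signal over untreated wells; some hits fall short of that in this replicate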
PABP polyA inh = PABP-poly(A) binding inhibition; AID 2014; inhibition, % at 35 µM; PABP-poly(A) RNA binding, fluorescence polarization; hit rate 1% among 290,000;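 active = 50% or more with normal probe brightness, or confirmed in later tests; inconclusive = above 50% with abnormal brightness, or retests that disagree; inactive = below 50% or failed in later tests; about a fifth of its hits are not listed in these tables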;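 note: calls also rest on retests at 20 µM and on dose response follow-up; controls were probe without protein and protein plus probe with vehicle; some compounds called inactive have numbers as strong as hits; many hits fall short of the cut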
Target sequence (P11940 whole entry, looked up): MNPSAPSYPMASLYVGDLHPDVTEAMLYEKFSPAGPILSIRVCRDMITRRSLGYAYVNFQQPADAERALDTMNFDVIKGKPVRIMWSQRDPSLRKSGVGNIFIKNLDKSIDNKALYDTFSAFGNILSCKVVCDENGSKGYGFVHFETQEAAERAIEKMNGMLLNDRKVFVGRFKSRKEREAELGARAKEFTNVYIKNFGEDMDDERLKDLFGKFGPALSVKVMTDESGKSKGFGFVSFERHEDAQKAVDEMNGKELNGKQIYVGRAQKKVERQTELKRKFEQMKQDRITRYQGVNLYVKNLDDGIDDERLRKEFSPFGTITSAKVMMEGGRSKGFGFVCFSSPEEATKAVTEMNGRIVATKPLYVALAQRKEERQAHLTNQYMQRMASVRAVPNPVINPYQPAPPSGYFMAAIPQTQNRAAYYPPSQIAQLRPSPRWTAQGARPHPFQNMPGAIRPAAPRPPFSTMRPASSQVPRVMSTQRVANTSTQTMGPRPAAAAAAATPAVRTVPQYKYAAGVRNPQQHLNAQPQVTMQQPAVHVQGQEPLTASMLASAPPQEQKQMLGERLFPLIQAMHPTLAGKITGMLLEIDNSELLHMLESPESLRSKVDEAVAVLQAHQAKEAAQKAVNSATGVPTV
Env fusion inh = inhibitors of HIV Env-mediated cell fusion | inhibition, % at 12.3 µM | AID 651610 | hit rate 1.1% among 360,000 | HeLa-JRFL Env/CEM21 cell fusion, luciferase;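 active = mean replicate inhibition score of at least 50 and every replicate individually at or above 50; inconclusive = only one of the two criteria met; inactive = mean below 50 and not all replicates reaching 50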;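 note: 0% = plate neutral controls and 100% = maraviroc near 300 nM; one replicate is shown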
Rce1 inhib = blocks yeast Ras-converting enzyme; hit rate 0.27% among 290,000; Q03530; calls only; yeast membranes, quenched prenylated peptide cleavage fluorescence;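 active = fall in fluorescence gain of 50% or more versus controls, with final raw signal at or below 3038400; inconclusive = same 50% fall but final raw signal above 3038400; inactive = fall in fluorescence gain under 50%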;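 note: plate controls were neutral control wells for no effect and wells lacking membranes for full effect; tested at 10 µM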
MT1-MMP act inh = blocks activation of human MT1-MMP | P50281 | HT1080 RFP-PRO-GFP cells, GFP/RFP ratio fluorescence, overnight; percent of plate control window, DMSO zero | GFP/RFP ratio change, % at 20 µM | hit rate 0.061% among 360,000 | AID 651647;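 active = GFP/RFP ratio change of at least 30% with cell ATP level not reduced by more than half and red fluorescence within 50% of control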; note: strong numbers were not always called active
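Material: RFP-PRO-GFP reporter HT1080 cells. Dosing: single-point 20 µM compound, 1% DMSO. Controls: DMSO and RFP-L50D-GFP cell wells. Timing: cells overnight before dosing, compound overnight, 37 °C, 5% CO2. Measure: GFP/RFP fluorescence ratio.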
CSC inhib = blocks cancer stem cells | inhibition, % at 7.5 µM | hit rate 1.1% among 300,000 | AID 2717 | cancer stem cell-like cells viability, luminescence;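 active = mean at 75% or more and at least half the replicates too; inconclusive = mean and replicates disagree; tested in HMLE shEcad cells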;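 note: 0% = median of negative and 100% = median of positive control wells; the first replicate is given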
eIF4H inh = inhibitors of RNA binding by human eIF4H | inhibition, % at 35 µM | eIF4H fluorescence polarization binding assay | hit rate 0.94% among 290,000;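 active = 50% or more with normal probe brightness, or confirmed in later tests; inconclusive = above 50% with abnormal brightness, or retests that disagree; inactive = below 50% or failed in later tests; about a fifth of its hits are not listed in these tables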;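 note: calls also rest on retests at 20 µM and on dose response follow-up; 0% = protein and probe with vehicle and 100% = probe without protein; strong numbers were not always called active; many hits fall short of the cut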
MT1-MMP act inh RFP = also measured in MT1-MMP act inh; calls as there; RFP signal change, %; measured here: RFP expression control read;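 0 = vehicle wells; hits needed this value within 50% of zero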
* marks the source's active call; other numbers are inactive results; i = inactive; ? = inconclusive; / = no result given.

SMILES | UUG fidelity | PABP polyA inh | Env fusion inh | Rce1 inhib | MT1-MMP act inh | MT1-MMP act inh RFP | CSC inhib | eIF4H inh
CCn1c(SCC(=O)Nc2ccccc2F)nc2c(c1=O)SC(C)C2 (stereo not given) | -4.7 | 3.6 | / | / | 6.0 | -3.4 | -6.1 | -1.4
Cc1ccc(S(=O)(=O)NNC(=O)CCC(=O)Nc2ccc(C)c(C)c2)cc1 | -10.3 | 0.4 | / | i | 1.3 | 2.8 | 0.2 | 2.2
O=C(O)c1ccccc1-c1ncc(-c2ccccc2)o1 | -5.1 | / | -9.3 | i | 1.1 | -3.5 | -19.0 | /
Cc1ccc(-n2cccn2)c(CN2CCCC(CNC(=O)c3ccc(F)cc3)C2)c1 (stereo not given) | 1.8 | 5.5 | 13.1 | i | -5.1 | 1.5 | -0.3 | 0.1
N#CCC(=O)Nc1ccc(C(=O)Nc2cccc(S(=O)(=O)N3CCCC3)c2)cc1 | -13.7 | / | 15.7 | / | 2.8 | 4.3 | / | /
COc1cc(Cl)ccc1OCc1cc(C(=O)N2C[C@@H]3CCC[C@H]2C3)no1 | -13.6 | -10.6 | -154.6 | i | 3.1 | 1.1 | 5.9 | 1.0
Clc1ccc(SCCCN2CCCCC2)cc1 | 1.0 | 14.1 | -6.3 | i | 0.8 | 0.8 | 21.0 | -6.2
COc1cccc(C=O)c1OCCN1C(=O)c2ccccc2C1=O | -1.6 | 1.2 | -5.5 | i | -1.8 | -1.6 | -16.9 | -5.5
CN(c1ccccc1)S(=O)(=O)c1cccc(NC(=O)CSc2n[nH]c(N)n2)c1 | -17.1 | -0.4 | -3.1 | i | 1.2 | -26.2 | -4.9 | -1.9
CCN(CC)c1ccc(NC(=O)Nc2cccc3ccccc23)cc1 | 0.2 | 7.8 | / | i | 2.9 | -5.1 | 11.2 | -2.8
CN(CC(=O)Nc1cccc(F)c1)C(=O)CCCc1nc2ccccc2c(=O)[nH]1 | / | / | 0.5 | i | 1.4 | 10.2 | 7.3 | /
Cc1cc(C(F)F)nn1CC(=O)NC1CCCC1 | -15.6 | 1.7 | 4.4 | / | -0.3 | 1.4 | -4.5 | 3.0
Clc1ccccc1NN=Cc1ccccn1 | -12.8 | / | -53.4 | / | 1.7 | -1.8 | / | /
c1csc(CSc2nc3ccccc3s2)c1 | / | -3.9 | -51.7 | i | -1.4 | -1.1 | 4.2 | -7.1
O=C(Nc1ccc(Br)cc1)N1CCCCCCC1 | -7.7 | -2.1 | / | i | 2.0 | 1.7 | -9.2 | 0.0
O=C1/C(=C/c2cccc(O)c2)SC(=S)N1CC1CCCO1 (stereo not given) | 1.6 | -0.9 | -10.8 | i | -0.1 | 0.5 | -0.4 | -0.8
CC(Oc1ccccc1)C(=O)N1CCN(c2ccc(N3CCCCCC3)nn2)CC1 (stereo not given) | -9.7 | / | 5.5 | i | 15.5 | -3.0 | -21.0 | /
Cc1ccc(-c2nn(C)c(=O)c3ccccc23)cc1S(=O)(=O)N1CCOCC1 | / | -9.1 | 40.7 | i | 3.9 | -1.7 | 24.7 | -7.3
NNc1cc(C(=O)O)ccc1Cl | -19.4 | 12.7 | 19.0 | i | -0.8 | 1.6 | -7.5 | -7.7
COCCNC(=O)c1c[nH]n2c(=O)cc(C3CCN(C(=O)OC(C)(C)C)CC3)nc12 | -12.1 | 3.2 | -2.4 | i | 1.6 | 3.4 | -2.8 | -8.9
O=C(CN(Cc1ccco1)C(=O)CCC(=O)Nc1ccccn1)NCCc1ccccc1 | 12.6 | -2.2 | / | i | 1.2 | 2.2 | 0.0 | -8.5
Cc1ccc(S(=O)(=O)N2CCN(Cc3ccco3)CC2)cc1C | -29.2 | -3.7 | 13.1 | i | -1.5 | -1.5 | 1.1 | 3.5
O=C(NCC1CCCO1)c1cccc(Oc2ccc([N+](=O)[O-])cc2Cl)c1 (stereo not given) | / | 9.6 | ? | i | -3.4 | -11.1 | -8.5 | 8.5
CC(Nc1nc(N2CCOCC2)nc2ccccc12)c1ccccc1 (stereo not given) | / | 5.6 | 16.5 | i | -3.4 | -3.5 | -11.7 | -4.9
Cc1ccsc1C1C(C#N)=C(N)OC2=C1C(=O)CCC2 (stereo not given) | -7.0 | -4.8 | -12.0 | i | -5.9 | -1.3 | -22.9 | -4.8
O=C1C2C(c3ccccc3)C=CC(c3ccccc3)C2C(=O)N1c1ccccn1 (stereo not given) | / | -3.9 | 5.0 | i | -12.3 | 0.4 | 0.7 | -5.0
CC(=O)Oc1ccc2c3c(c(=O)oc2c1C)CCCC3 | -9.2 | 0.2 | 12.0 | i | -7.4 | -0.2 | 4.2 | -1.8
COc1ccccc1C(=O)NCCn1cc(SCC(=O)Nc2nnc(C)s2)c2ccccc21 | -11.5 | -4.5 | / | i | -0.8 | 0.9 | / | -9.3
COc1ccc(NC(=O)c2cc(S(=O)(=O)N3CCCC3)oc2C)cc1 | / | -5.6 | 19.9 | / | -0.9 | -7.6 | -7.4 | -4.5
CC(=O)c1cc(C#N)c(Oc2ccc(Cl)cc2Cl)nc1C | -12.8 | / | / | i | -3.2 | -3.6 | -4.9 | /
COc1ccc(OC)c(C2C=C(C34CC5CC(CC(C5)C3)C4)NC(=S)N2)c1 (stereo not given) | -15.1 | -12.2 | -3.6 | i | -13.3 | -12.1 | -4.6 | -10.7
COc1ccc(NC(=O)C2CCCCC2)cc1S(=O)(=O)N1CCOCC1 | -5.2 | / | / | / | 6.6 | 3.2 | -6.3 | /
COc1ccc(CCN2C(=O)C3C4C=CC(C4)C3C2=O)cc1OC (stereo not given) | -12.4 | 9.4 | 4.3 | i | 8.9 | 5.0 | -2.6 | 0.9
CCCCCCC(C)OC(=O)Nc1cccc2ccccc12 (stereo not given) | -6.7 | 1.1 | 13.2 | i | -1.3 | -2.1 | 11.5 | -7.8
O=C1CC(c2ccc(Cl)cc2)CC(O)=C1C=NCc1ccc(Cl)c(Cl)c1 (stereo not given) | -13.3 | 1.2 | 12.8 | i | 3.3 | -1.4 | 20.5 | 3.7
COc1cc(C(=O)NC(C)c2cnn(-c3ccccc3C)c2C)cc(OC)c1OC (stereo not given) | / | -0.5 | -37.3 | i | 8.7 | 9.3 | -7.5 | -4.4
C/C(CC(=O)NC1CCCCC1)=N\NC(=O)c1ccccn1 | / | 4.9 | -6.0 | i | -1.8 | -3.3 | / | -4.0
COc1ccc(C2/C(=C(/O)c3ccc(F)cc3)C(=O)C(=O)N2CCCN2CCOCC2)cc1OC (stereo not given) | 6.5 | -2.8 | / | i | -1.7 | 1.4 | -1.8 | -0.4
COc1cc(/C=C/C(=O)O[C@H]2[C@H](O[C@@H]3O[C@@H](C)[C@H](O)[C@@H](O)[C@H]3O)[C@@H](O)[C@H](OCCc3ccc(O)c(OC)c3)O[C@@H]2CO)ccc1O | 2.0 | / | -3.6 | / | -0.7 | 2.9 | / | /
COc1cc(C2C(N3C(=O)c4ccccc4C3=O)C(=O)N2c2ccc(C)c(C)c2)cc(OC)c1OC (stereo not given) | -5.0 | -7.2 | 25.4 | i | 4.5 | 5.5 | -0.9 | -1.6

Ordered by the number under Env fusion inh (highest first): 3 of the compounds above.
Structure	UUG fidelity	Env fusion inh	Rce1 inhib	MT1-MMP act inh	MT1-MMP act inh RFP
NNc1cc(C(=O)O)ccc1Cl	-19.4	19.0	i	-0.8	1.6
N#CCC(=O)Nc1ccc(C(=O)Nc2cccc(S(=O)(=O)N3CCCC3)c2)cc1	-13.7	15.7	/	2.8	4.3
Cc1ccc(S(=O)(=O)N2CCN(Cc3ccco3)CC2)cc1C	-29.2	13.1	i	-1.5	-1.5

Continued:
SMILES | UUG fidelity | PABP polyA inh | Env fusion inh | Rce1 inhib | MT1-MMP act inh | MT1-MMP act inh RFP | CSC inhib | eIF4H inh
COC(=O)CSc1nnc(CNc2nc(-c3ccccc3)cs2)n1C | -5.9 | 7.0 | -36.9 | i | 2.2 | 1.2 | / | -3.7
CCCNC(=O)c1cc(C2CCCCN2C(=O)c2ccc(NC(C)=O)cc2)on1 (stereo not given) | -11.1 | / | -25.2 | / | 8.0 | 5.2 | / | /
O=C(Nc1ccc(F)c(F)c1)c1ccc2c(c1)OCO2 | -11.1 | 1.5 | / | i | -3.6 | -8.3 | 4.3 | -5.4
COc1ccc(C(c2c[nH]c3ccccc23)c2c[nH]c3ccccc23)cc1O | 5.7 | 4.9 | -39.2 | i | 2.6 | 9.6 | 119.3* | -7.5
COc1ccc(CCNC(=O)C(=O)NCc2cccs2)cc1OC | / | -11.7 | -8.7 | i | 2.4 | 3.3 | -14.4 | -2.4
CC(C)n1cc(NC(=O)COc2ccccc2Cl)cn1 | -8.9 | 1.7 | -13.9 | / | -0.2 | -0.8 | -9.8 | -13.2
CC(=O)Nc1ccc(NC(=O)CSc2nc(N)c(NC(=O)c3ccco3)c(=O)[nH]2)cc1 | 0.2 | 22.6 | -2.1 | i | 6.0 | 10.1 | -7.7 | 13.7
COc1ccc2[nH]c(C(=O)O)c(NC(=O)c3ccccc3[N+](=O)[O-])c2c1 | -4.9 | -1.7 | -11.0 | i | -4.9 | 1.9 | -2.8 | -6.6
NC(=O)C1(N2CCCCC2)CCN(S(=O)(=O)c2ccccc2)CC1 | -2.6 | -2.5 | / | i | -1.3 | 2.5 | -12.1 | -3.6
Cc1ccc(-c2nn(-c3ccccc3)cc2/C=N/n2c(-c3cccs3)n[nH]c2=S)cc1 | -13.8 | 2.9 | -1.6 | i | -5.3 | -9.6 | 46.0 | 3.8
O=C(N/N=C/c1cccc2ccccc12)C(=O)N1CCCC1 | -6.3 | -6.3 | 10.7 | i | 0.5 | 3.7 | -14.0 | 8.3
O=C(CCS(=O)(=O)c1ccc(F)cc1)Nc1nnc(-c2cccs2)o1 | -20.6 | / | -14.2 | i | -6.2 | -1.4 | -5.4 | /
O=C(c1ccncc1)N1CCN(S(=O)(=O)c2cccc(C(F)(F)F)c2)CC1 | -16.6 | / | 4.6 | / | -0.4 | -1.3 | / | /
COc1cccc(OCc2cc(C(=O)N3CCN(C4CCCCC4)C(=O)C3)no2)c1 | -17.1 | -2.4 | -2.8 | i | 5.9 | -1.6 | -1.1 | -2.0
Cc1ccccc1CNC(=O)c1ccc(CSCc2ccccc2)cc1 | -17.9 | -16.3 | / | i | 2.8 | -3.1 | 7.3 | -13.8
CC(C)c1cc(-c2cc(C(=O)NCc3ccccc3)on2)nc(NCC2CC2)n1 | 13.1 | -8.2 | 5.4 | i | -2.0 | -3.0 | 14.8 | 0.1
CC1(C)C2CCC(C2)C1(C)NC(=O)CNCC1CCCCC1 (stereo not given) | / | 43.1 | 61.4* | i | 1.7 | 0.9 | 5.5 | -0.2
CCOC(=O)Cn1cnc2c(nnn2-c2cccc(OC)c2)c1=O | / | 0.1 | 9.0 | i | 2.3 | 2.1 | -7.5 | -5.4
COc1ccccc1N(CC(=O)NC1CCCCC1C)S(=O)(=O)c1cccs1 (stereo not given) | / | / | -177.4 | / | 0.4 | -4.5 | -9.9 | /
Cc1cc(C)n(CCN(C)C(=O)C2CCC(=O)N(CCN3CCOCC3)C2)n1 (stereo not given) | -12.7 | -15.1 | / | / | 1.2 | 2.3 | -11.5 | -8.9
COc1ccc(CN(C)C(=O)[C@H]2O[C@@H](n3ccc(=O)[nH]c3=O)[C@H](O)[C@@H]2O)cc1OC | 0.5 | / | -4.6 | / | 0.1 | 10.7 | / | /
O=C(NC1CCCCC1)C(c1ccc(F)cc1)N(Cc1ccco1)C(=O)c1csnn1 (stereo not given) | -10.9 | 0.4 | 63.2* | i | -3.0 | 0.7 | -26.6 | 1.5
COc1ccc(C)cc1NC(=O)CSc1nnc2ccc(-c3ccccn3)nn12 | 22.2 | / | / | i | 3.5 | 4.4 | / | /
Cc1sc(N)nc1-c1ccc2c(c1)OCCO2 | -14.4 | 1.2 | -26.7 | i | 0.2 | 2.1 | 1.9 | -0.5
